# High-throughput results as filed in PubChem BioAssay.
# Menin MLL FP FL: inhibitors of human menin-MLL interaction, wild-type MLL peptide; FP activity change, % at 61.4 µM; 290,000 tested, under 10 active; AID 1766; Fluorescence polarization, fluorescein-MLL peptide displacement from menin; inconclusive = falling polarisation curve, or a change in total fluorescence; inactive = total fluorescence flat and polarisation flat or rising; no compound was filed as active; the % refers to the polarisation; negative = inhibition;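 further: % of control where 0% means no effect; inhibitors lower the polarisation; unlabelled MLL peptide was the positive control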
# ClpP mod: qHTS Assay for Activators of ClpP. Potency, µM (doses to about 57.5 µM), without a hit: at the highest dose activity change, negative = active. AID 651965, 2013. ATP-dependent Clp protease proteolytic subunit (Bacillus subtilis (strain 168)), P80244. purified B. subtilis ClpP, FRET peptide cleavage, 20 min. hit rate 1.9% among 340,000; active = well fitted falling curve with a large enough effect; inconclusive = small, poorly fitted or top-dose-only effect; inactive = no such curve, though single readings can be large or run the other way; further: potency means the concentration at half of the fitted maximal effect; the source files actives as falling curves though it sought activators and does not explain the sign; nearly all actives have a fitted effect of over 65% in size; many hits overshoot -100%
# Target sequence (P80244 whole entry, looked up): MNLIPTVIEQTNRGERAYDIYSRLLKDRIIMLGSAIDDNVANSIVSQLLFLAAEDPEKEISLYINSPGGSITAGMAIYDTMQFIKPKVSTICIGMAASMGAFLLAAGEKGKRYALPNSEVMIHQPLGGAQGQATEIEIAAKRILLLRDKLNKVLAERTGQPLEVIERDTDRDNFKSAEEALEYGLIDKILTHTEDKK
#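 ClpP 10 microg/mL final, pH 8 Tris/KCl buffer with BSA, glycerol, Tween-20; compound pinned in; FRET-FV substrate; RT 20 min; Ex320/Em430; ΔFRET vs ADEP 5.8 microM, DMSO, no enzyme.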
# TRPML1 ag: human mucolipin-1 channel agonism. Q9GZU1. TRPML1-expressing cells, Ca2+ dye fluorescence, FDSS; host cell line not named in the record; reference of the full effect not given here. activation, % (no concentration beside the values). hit rate 0.12% among 410,000; in the data active = activation above about 50%; inconclusive = about 30% to 50%; inactive = below about 30%; further: 0% is about no effect; the text of the record puts the active cut at 80%
#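 Cells: TRPML1-DL, 1X Tet inducer, ~16 h at 37 degrees C/5% CO2. Dye: ABD Ca8 no-wash + quencher, 45-90 min RT. Read: 10 s baseline, compound add, 110 s agonist phase; 54-4 EC80 (4uM final), 110 s antagonist phase.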
# Sfp inh: inhibitors of Bacillus subtilis Sfp phosphopantetheinyl transferase. Potency, µM, without a hit: max response, negative = inhibition, actives largely listed as inhibitors. Biochemical Sfp PPTase activity, qHTS. hit rate 3.5% among 310,000. Q9F4F7; active means well fitted inhibition curve with a large enough effect; inconclusive means small, poorly fitted or top-dose-only effect, or another doubt; inactive means no such curve, though single readings can be large or run the other way;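 further: the enzyme is Sfp with the accession as filed and its product quenches rhodamine fluorescence; potency means the concentration at half of the fitted maximal effect; 0% = enzyme reaction without inhibitor and -100% = no enzyme wells; top concentration of the series not given in the record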
#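 Step 1, compound plus 15 nM Sfp-PPTase, 15 min, room temperature. Step 2, add rhodamine-CoA (5 uM) and BHQ-2-YbbR (12.5 uM). Step 3, read 525/598 nm fluorescence at 0 and 30 min.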
# TRPML1 inh: human mucolipin-1 channel inhibition. Q9GZU1. TRPML1-inducible cells, Ca2+ dye fluorescence, FDSS; hits give low values; inhibition of EC80 agonist-evoked calcium signal. activity change, negative = inhibition, % (concentration not given with the values). hit rate 0.02% among 390,000; in the data active means activity change below about -50%; inconclusive means about -30% to -50%; inactive means above about -30%;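 further: stimulus is agonist 54-4 at its EC80 concentration; on the % scale 0 is the no-effect control and ±100 the full control effect; compound concentration not given in the record; the text of the record puts the active cut at -80%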
#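 TRPML1-DL cells, Tet-induced overnight (~16 h, 37 °C) at 1,500 cells/well, were loaded with Ca8 no-wash dye plus quencher for 45-90 min at room temperature. Compounds were pinned during FDSS kinetic reading; agonist 54-4 at EC80 (4 uM final) then added.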
# PINK1 modulator: changes PINK1 expression; PINK1 immunofluorescence, high-content cytometry, 24 h; Potency, µM (series often up to 76.6 µM), without a hit: top-dose activation (PINK1 increase), actives largely listed as activators; hit rate 0.2% among 410,000; active = well fitted activation curve with a large enough effect; inconclusive = small, poorly fitted or top-dose-only effect; inactive = flat fitted curve, though single readings scatter; cell line not stated here;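 further: potency means the concentration at half of the fitted maximal effect; % of control where 0% means no effect; nearly all actives have a fitted effect of over 65% in size; a mitochondrial uncoupler was the plate control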
#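 PINK1 protein, normally rapidly degraded, was detected by immunofluorescence after 24 hour compound treatment of a stable cell line. Titration data (5 concentrations) came from laser-scanning cytometry, with CCCP-treated wells as controls.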
# TRPV1 potentiator: human TRPV1 potentiation; Q8NER1; potentiation, % at 8.33 µM; AID 540277; TRPV1-expressing cells, Fluo-8 calcium influx, capsaicin EC20 potentiation; host cell line not named in the record; control for the full effect not named in the record; hit rate 0.02% among 320,000; active means potentiation above 80%; inconclusive means 30% to 80%; inactive means below 30%; further: 0% is about no effect
# Target sequence (Q8NER1 whole entry, looked up): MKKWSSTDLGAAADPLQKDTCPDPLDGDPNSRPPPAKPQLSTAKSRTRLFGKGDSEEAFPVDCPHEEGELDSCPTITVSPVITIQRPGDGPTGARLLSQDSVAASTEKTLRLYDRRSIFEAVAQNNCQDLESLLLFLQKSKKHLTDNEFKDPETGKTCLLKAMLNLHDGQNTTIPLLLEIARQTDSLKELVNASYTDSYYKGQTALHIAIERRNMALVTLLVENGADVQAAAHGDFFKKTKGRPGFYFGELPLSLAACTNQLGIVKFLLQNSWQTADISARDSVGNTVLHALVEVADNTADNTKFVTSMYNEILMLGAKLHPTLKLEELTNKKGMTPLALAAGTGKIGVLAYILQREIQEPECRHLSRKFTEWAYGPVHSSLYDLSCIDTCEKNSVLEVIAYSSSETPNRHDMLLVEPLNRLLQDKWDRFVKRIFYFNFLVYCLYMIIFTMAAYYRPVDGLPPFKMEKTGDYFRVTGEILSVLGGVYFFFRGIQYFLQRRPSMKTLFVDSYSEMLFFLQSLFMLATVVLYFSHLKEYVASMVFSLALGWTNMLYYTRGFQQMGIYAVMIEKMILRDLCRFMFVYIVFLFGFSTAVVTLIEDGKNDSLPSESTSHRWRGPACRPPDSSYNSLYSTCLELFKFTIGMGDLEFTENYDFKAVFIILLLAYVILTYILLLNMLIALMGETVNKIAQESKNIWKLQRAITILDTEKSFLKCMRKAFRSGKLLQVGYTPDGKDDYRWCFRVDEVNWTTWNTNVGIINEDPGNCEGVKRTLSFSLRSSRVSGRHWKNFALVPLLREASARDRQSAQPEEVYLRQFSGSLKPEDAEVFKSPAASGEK
#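 TRPV1-expressing cells were cultured overnight at 35.5C and loaded with Fluo-8 calcium dye for 40 to 90 min at room temperature. After a 10 s baseline, compound was added and calcium influx was read kinetically for 3 min (ex 480/em 520 nm).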
# Active calls of the source: *; ? = inconclusive; / = no result given; & = joins results of further samples; [ ] = another dose, or the depositor's remark.
canonical_smiles	Menin MLL FP FL	ClpP mod	TRPML1 ag	Sfp inh	TRPML1 inh	PINK1 modulator	TRPV1 potentiator
COc1ccc(NC(=O)CN(C)C(=O)C2CC(=O)N(c3ccc4c(c3)OCCO4)C2)cc1 (stereo not given)	/	-1.0%	0.5	/	26	0.0%	19
O=C(NN1C(=O)C2C3C=CC(C3)C2C1=O)c1ccco1 (stereo not given)	-1.0	-0.4%	0.6	21%	-13	0.3%	0
COc1ccc(N(CC(=O)N2c3ccccc3CC2C)S(=O)(=O)c2c(C)noc2C)cc1 (stereo not given)	-0.3	2.7%	0.9	13%	29	-1.6%	3
CCCCNC(=O)C1c2ccccc2OCC(=O)N1CCOC (stereo not given)	/	0.0%	-0.3	/	/	1.6%	/
Cc1cc(OCC(=O)OCC(=O)N(Cc2ccccc2)C(C)(C)C)ccc1Cl	/	1.0%	-0.4	/	3	0.8%	/
O=C(Nc1ccccc1C(=O)NCCN1CCOCC1)c1ccco1	-5.2	-0.9%	0.0	15%	12	3.4%	?
Cc1cccc(NC(=O)COC(=O)c2ccc(S(=O)(=O)N3CCCC3)cc2)c1	/	1.6%	-0.4	/	11	4.1%	7
COc1ccc(NC(=O)CSCc2cc(=O)n3ccsc3n2)cc1	5.4	1.2%	-0.2	9%	0	0.4%	6
COc1ccc(NC(=O)c2cc(S(=O)(=O)NCCC3=CCCCC3)ccc2F)cc1	/	-1.0%	2.2	/	-9	0.5%	/
O=C(COC(=O)c1ccccc1Br)NC1CCCC1	/	/	-0.1	1%	2	2.2%	-16
O=C(COC(=O)Cn1nc(-c2ccccc2)oc1=O)Nc1ccc(F)cc1	/	-1.7%	0.0	/	-2	-0.7%	-2
Cc1nnc(NC(=O)c2csc3c2CCCC3)s1	-1.1	/	/	20%	/	/	-3

canonical_smiles	Menin MLL FP FL	ClpP mod	TRPML1 ag	Sfp inh	TRPML1 inh	PINK1 modulator	TRPV1 potentiator
CCOc1ccc(N(CC)S(=O)(=O)c2c(C)[nH]c(=O)[nH]c2=O)cc1	-0.6	/	-0.3	13%	-8	-0.4%	1
Cc1nc(Cl)nc(N(C)c2ccccc2)c1[N+](=O)[O-]	2.7	/	-0.6	14%	26	5.2%	3
Cn1c(N)c(C(=O)COC(=O)[C@@H]2CCCN2S(=O)(=O)c2ccc(Cl)cc2)c(=O)n(C)c1=O	0.3	/	-0.5	16%	11	-0.1%	16
C=CCOC(=O)C(C#N)c1nc2ccccc2nc1N1CCN(Cc2ccc3c(c2)OCO3)CC1 (stereo not given)	?	-9.4%	4.3	-8%	42	-2.7%	-24
CCOc1ccc(CCNC(=O)c2cn(C)c3ccc(S(=O)(=O)N4CCOCC4)cc3c2=O)cc1OCC	/	-5.6%&0.0%	-0.5&0.5	3%	3&5	2.7%&4.3%	25
CCCOc1ccc(C2c3c(-c4ccccc4O)n[nH]c3C(=O)N2CCCOCC)cc1OCC (stereo not given)	/	-1.8%	0.5	/	-12	1.3%	/
CCc1ccc(-n2c(=O)c3c4c(sc3n(CC(=O)c3ccc(Br)cc3)c2=O)CCC4)cc1	/	-0.5%	1.2	/	1	1.2%	/
CCCOC(=O)CN1C(=O)c2ccc(C(=O)OCCC)cc2C1=O	0.1	1.1%	5.8	-2%	20	-0.6%	-27
CCN1CCN(C(=O)c2ccc(CS(=O)(=O)Cc3ccccc3F)o2)CC1	0.7	-0.1%	2.5	11%	-2	0.4%[38.3 µM]	17
Cc1ccc(C(c2c(C)[nH][nH]c2=O)c2c(C)[nH][nH]c2=O)cc1[N+](=O)[O-]	0.1	0.9%	0.1	-2%	-3	0.2%	0
CCOC(=O)N1CCN(C(=O)c2cc(COc3c(F)cccc3F)on2)CC1	?	-2.1%	1.6	8%	-2	1.4%	-3
Cc1cccnc1NC(=O)Nc1cccc2ccccc12	0.7	25µM*	-0.8	4%	7	2.9%	-9

# Looked up by compound from the list above (two):
canonical_smiles	Menin MLL FP FL	ClpP mod	TRPML1 ag	Sfp inh	TRPML1 inh	PINK1 modulator	TRPV1 potentiator
CCOc1ccc(N(CC)S(=O)(=O)c2c(C)[nH]c(=O)[nH]c2=O)cc1	-0.6	/	-0.3	13%	-8	-0.4%	1
CCCOC(=O)CN1C(=O)c2ccc(C(=O)OCCC)cc2C1=O	0.1	1.1%	5.8	-2%	20	-0.6%	-27

# Other structures follow.
canonical_smiles	Menin MLL FP FL	ClpP mod	TRPML1 ag	Sfp inh	TRPML1 inh	PINK1 modulator	TRPV1 potentiator
CS(=O)(=O)N(Cc1nnc(-c2cccs2)o1)c1ccc(Cl)cc1F	0.2	-1.0%	-0.8	12%	-9	-2.1%	/
Cc1ccc2c(c1)cc(C(=O)Nc1ccc(F)cc1F)n2C	/	-0.7%	-0.7	/	-16	3.8%	/
COc1ccc(OC)c(S(=O)(=O)n2ccc(C)n2)c1	-1.4	/	-0.4	4%	3	2.7%	11
CCCN(C(=O)C(NC(=O)c1ccccc1)C(C)C)c1c(N)n(Cc2ccccc2)c(=O)[nH]c1=O (stereo not given)	/	0.5%	0.6	/	10	-0.9%	-23
NS(=O)(=O)c1ccc(CCNS(=O)(=O)c2cccc(C(=O)O)c2)cc1	1.3	-1.2%	/	17%	/	0.5%	-1
Cc1cccc(NC(=S)NC2CC3CCCC(C2)N3CC(C)C)c1 (stereo not given)	-1.8	-6.4%	0.6	7%	23	0.4%	-22
Cc1cccc(C(=O)N[C@H](C(=O)Nc2ccc(S(=O)(=O)NC3=NCCCCC3)cc2)C(C)C)c1	5.4	35µM*	-0.6	3%	-27	0.3%	7
CCN(CC(=O)Nc1c(F)cccc1F)C(=O)c1cccc(S(=O)(=O)N2CCN(c3ccccc3)CC2)c1	/	-1.4%	2.4	5%	4	-0.2%	9
COc1ccccc1CNS(=O)(=O)c1ccc(F)c(C(=O)Nc2cc(Cl)ccc2OC)c1	/	?	2.1	/	23	2.3%	/
O=c1[nH]cc(NCCNc2ncc(C(F)(F)F)cc2Cl)c(=O)[nH]1	-0.3	2.5%	0.8	10%	-11	1.1%	-25
CC(C)c1cc(CNC(=O)CCc2nnc(CCCc3ccccc3)o2)on1	0.8	1.7%	-0.2	14%	20	1.0%	17
O=C1NC[C@H](Cc2ccccc2)N(C[C@@H]2CCCN2C[C@H](Cc2ccc(O)cc2)N2C[C@H](Cc3ccccc3)N(CCc3ccccc3)C(=O)C2=O)C1=O	/	3.9%	-0.8	/	/	0.8%	/

canonical_smiles	Menin MLL FP FL	ClpP mod	TRPML1 ag	Sfp inh	TRPML1 inh	PINK1 modulator	TRPV1 potentiator
COCCNC(=O)c1cccc(OC2CCN(C(C)COc3ccccc3)CC2)c1 (stereo not given)	-3.5	-0.5%	0.0	7%	26	3.4%	4
Cc1ccc2cc3c(NC(=O)c4ccco4)nn(C)c3nc2c1	8.2	-19%	-0.1	7%	-4	13%	-21
CCOc1ccc(CNC(=O)CSc2cc(=O)n(CC)c3ccccc23)cc1	/	17%	1.9	/	-4	2.7%	/
Cc1cccc(C(=O)N(Cc2ccco2)c2c(N)n(Cc3ccccc3)c(=O)[nH]c2=O)c1	/	-2.0%	1.2	/	-3	-0.5%	4
CCC(=O)N(CCC1(C(C)C)CCOC(C)(C)C1)Cc1ccco1 (stereo not given)	12	2.9%	-0.2	13%	-11	0.3%	-21
COc1ccc(NC(=O)NNC(=O)COc2ccc3ccccc3c2)cc1	/	-3.8%	-0.6	0%	-4	0.8%	-2
COc1cccc(C(=O)Nc2cc(-c3ccccc3)no2)c1	/	-0.1%	-0.2	/	17	0.8%	/
Cc1ccc(C)c(NC(=O)Cn2cc(S(=O)(=O)N3CCCC3)c(S(=O)(=O)N3CCCC3)c2)c1	/	0.7%	-0.4	/	11	1.3%	/
Cc1ccc(Sc2ccc(/C=N/O)cc2[N+](=O)[O-])cc1	-2.1	-2.1%	-0.6	-12%	-5	0.1%	-11
CCOC(=O)C1(C)CCCN(C(=O)c2ccc(OC)c(OC)c2)C1 (stereo not given)	/	0.3%	-0.5	/	/	0.1%	/
N#Cc1ccc2sn(-c3ccccc3)c(=O)c2c1	/	-1.4%	1.8	/	4	3.7%	/
CCOC(=O)Cn1c(O)c(N=NC(=O)CNC(=O)Cc2ccccc2)c2ccccc21	-5.9	/	1.0	21%	42	0.8%	2

# Brought forward from above: two entries, followed by the next part.
canonical_smiles	Menin MLL FP FL	ClpP mod	TRPML1 ag	Sfp inh	TRPML1 inh	PINK1 modulator	TRPV1 potentiator
N#Cc1ccc2sn(-c3ccccc3)c(=O)c2c1	/	-1.4%	1.8	/	4	3.7%	/
CCOC(=O)Cn1c(O)c(N=NC(=O)CNC(=O)Cc2ccccc2)c2ccccc21	-5.9	/	1.0	21%	42	0.8%	2
COC1CC(N)C2OC(c3ccccc3)OCC2O1 (stereo not given)	/	-2.4%	-0.6	/	-3	0.9%	/
Cn1c(SCC(=O)NCCC2=CCCCC2)nnc1C(F)(F)F	/	-0.3%	-0.5	/	-3	0.0%	/
CC(C)(C)c1nnc2sc(SC/C(O)=C(\C#N)c3nc4ccccc4[nH]3)nn2c1=O	11	7.2%	1.2	?	8	-0.4%	-6
CCCCOc1ccc(C(O)(CC)CCN2CCOCC2)cc1 (stereo not given)	0.7	0.6%	0.1	6%	0	/	-10
COc1ccc(CC(=O)c2ccc(OC)c(OC)c2C)cc1OC	5.7	-0.3%	1.6	4%	-9	1.2%	10
CNC(=S)N/N=C/c1ccc(OCC(=O)Nc2c(C)cc(C)cc2C)c(OC)c1	-1.1	?	-0.7	-2%	8	14%	5
c1ccc(CNc2ncnc3c2oc2ccccc23)nc1	4.8	-19%	-0.2	-9%	35	1.5%	-1
COc1ccc(Cn2c(-c3ccc(OC)cc3)n[nH]c2=S)cc1	1.8	/	1.9	-1%	-14	0.2%	12
O=C(CSc1nnc(-c2cccs2)o1)Nc1cccc(C(F)(F)F)c1	/	71%	4.5	/	93	0.4%	/
COc1cc(S(=O)(=O)Nc2ccccc2C)ccc1Cl	3.0	-1.1%	0.0	-2%	8	6.6%	7
O=C(Nc1nonc1NC(=O)c1cccs1)c1cccs1	0.2	/	0.1	11%	2	?	?
COCCNC(=S)N/N=C/c1ccc2c(c1)OCCO2	-3.2	-8.9%	-0.7	-10%	-6	2.0%	8
